# Screening data deposited in PubChem by several laboratories.
# eIF4H FP inh: inhibitors of RNA binding by human eIF4H | eIF4H fluorescence polarization binding assay | inhibition, % at 35 µM | 290,000 compounds, 0.94% hits | AID 2012;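 active means 50% or more with normal probe brightness, or confirmed in later tests; inconclusive means above 50% with abnormal brightness, or retests that disagree; inactive means below 50% or failed in later tests; about a fifth of its hits are not listed in these tables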;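 further: calls also rest on retests at 20 µM and on dose response follow-up; 0% = protein and probe with vehicle and 100% = probe without protein; strong numbers were not always called active; many hits fall short of the cut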
# PABP FP inh: blocks human PABP binding to poly(A) RNA; fluorescence polarization; inhibition, % at 35 µM; 290,000 compounds, 1% hits; AID 2014;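 active means 50% or more with normal probe brightness, or confirmed in later tests; inconclusive means above 50% with abnormal brightness, or retests that disagree; inactive means below 50% or failed in later tests; about a fifth of its hits are not listed in these tables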;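 further: calls also rest on retests at 20 µM and on dose response follow-up; controls were probe without protein and protein plus probe with vehicle; some compounds called inactive have numbers as strong as hits; many hits fall short of the cut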
# Target sequence (P11940 whole entry, looked up): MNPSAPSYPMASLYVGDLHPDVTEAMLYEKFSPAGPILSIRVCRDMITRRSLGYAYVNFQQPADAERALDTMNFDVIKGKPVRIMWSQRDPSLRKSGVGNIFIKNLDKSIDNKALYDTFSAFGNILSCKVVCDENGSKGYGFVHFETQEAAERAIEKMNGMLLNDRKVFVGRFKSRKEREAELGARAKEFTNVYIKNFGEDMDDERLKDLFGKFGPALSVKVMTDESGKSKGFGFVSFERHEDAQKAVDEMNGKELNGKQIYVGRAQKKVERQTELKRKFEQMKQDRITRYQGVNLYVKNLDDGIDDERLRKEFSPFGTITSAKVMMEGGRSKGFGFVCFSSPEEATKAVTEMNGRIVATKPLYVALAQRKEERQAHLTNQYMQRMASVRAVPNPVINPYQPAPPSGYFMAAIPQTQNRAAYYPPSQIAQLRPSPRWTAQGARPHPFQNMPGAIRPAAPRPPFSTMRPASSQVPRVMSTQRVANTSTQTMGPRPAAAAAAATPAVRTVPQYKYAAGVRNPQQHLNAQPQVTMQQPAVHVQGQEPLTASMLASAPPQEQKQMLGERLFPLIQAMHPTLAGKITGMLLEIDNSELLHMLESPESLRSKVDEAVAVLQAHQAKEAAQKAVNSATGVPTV
# Env fusion inh: inhibitors of HIV Env-mediated cell fusion; 360,000 compounds, 1.1% hits; inhibition, % at 12.3 µM; HeLa-JRFL Env/CEM21 cell fusion, luciferase;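 active means mean replicate inhibition score of at least 50 and every replicate individually at or above 50; inconclusive means only one of the two criteria met; inactive means mean below 50 and not all replicates reaching 50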;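 further: 0% = plate neutral controls and 100% = maraviroc near 300 nM; one replicate is shown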
# MT1-MMP act inh: inhibitors of human MT1-MMP activation; P50281; HT1080 RFP-PRO-GFP cells, GFP/RFP ratio fluorescence, overnight; percent of plate control window, DMSO zero; GFP/RFP ratio change, % at 20 µM; 360,000 compounds, 0.061% hits; AID 651647;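 active means GFP/RFP ratio change of at least 30% with cell ATP level not reduced by more than half and red fluorescence within 50% of control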; further: strong numbers were not always called active
#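 Assay system: HT1080 RFP-PRO-GFP cells | Dosing: 20 µM single dose, 1% DMSO | Incubation: Cells overnight before dosing, compound overnight, 37 °C, 5% CO2 | Evaluation: GFP/RFP fluorescence ratio | Control set: DMSO-only wells and HT1080 RFP-L50D-GFP cell wells as references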
# Rce1 inhib: yeast Ras-converting enzyme inhibition | Q03530 | yeast membranes, quenched prenylated peptide cleavage fluorescence | calls only | 290,000 compounds, 0.27% hits | AID 2563;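 active means fall in fluorescence gain of 50% or more versus controls, with final raw signal at or below 3038400; inconclusive means same 50% fall but final raw signal above 3038400; inactive means fall in fluorescence gain under 50%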;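 further: plate controls were neutral control wells for no effect and wells lacking membranes for full effect; tested at 10 µM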
# CSC inhib: blocks cancer stem cells; cancer stem cell-like cells viability, luminescence; inhibition, % at 7.5 µM; 300,000 compounds, 1.1% hits; AID 2717;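 active means mean at 75% or more and at least half the replicates too; inconclusive means mean and replicates disagree; tested in HMLE shEcad cells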;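 further: 0% = median of negative and 100% = median of positive control wells; the first replicate is given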
# Yeast UUG start: modulators of start codon recognition fidelity in yeast; S. cerevisiae UUG-firefly luciferase reporter, luminescence/redox ratio; activity score, % at 18.7 µM; 350,000 compounds, 0.13% hits;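 active means replicate mean at a twofold rise or more, about +100% in these data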;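 further: firefly luciferase made from a UUG start codon reports start codon fidelity; reporter light over untreated wells divided by growth signal over untreated wells; some hits fall short of that in this replicate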
# eIF4H FP inh retest: second read-out of eIF4H FP inh, no call of its own (marks repeat the call); inhibition, %; compound at 20 µM; confirmation average;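 mean of two retest wells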
# PABP FP inh retest: further read-out of PABP FP inh, marked with its call; inhibition, %; compound at 20 µM; confirmation repeats;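 mean of two retest wells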
# MT1-MMP act inh RFP: second read-out of MT1-MMP act inh, no call of its own (marks repeat the call); RFP signal change, %; measured here: RFP expression control read;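 0 = vehicle wells; hits needed this value within 50% of zero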
# * = called active by the depositor; i = inactive; u = inconclusive; x = not tested or not shown; & = joins results of further samples; [ ] = dose if it differs, or a comment. Rows are unselected; about 2.9% have a hit in one of these screens.
SMILES,eIF4H FP inh,PABP FP inh,Env fusion inh,MT1-MMP act inh,MT1-MMP act inh RFP,Rce1 inhib,CSC inhib,Yeast UUG start,others
CCC(=O)Nc1nc2ccccc2n1Cc1ccccc1Cl,4,3,19,14,-1,i,24,-12,
COc1ccc(/C=N/Nc2nc(-c3cccnc3)nc3ccccc23)cc1OC,-4,3,-8,-12,0,i,-2,x,
Nc1cc(N)cc(C(=O)c2ccccc2)c1,x,x,-2,6,5,x,x,-14,
COc1ccc2c(c1OC)C(=O)N1C(C(=O)O)Cc3c([nH]c4ccccc34)C21 (stereo unspecified),22,29,-59,-8,3,i,-16,3,
COc1ccc2c(CC(=O)N[C@@H](Cc3ccccc3)C(=O)O)cc(=O)oc2c1C,-2,2,22,0,1,i,11,1,
Cc1cc(C(=O)NC(C)C2CCCO2)cs1 (stereo unspecified),-8,-4,x,8,2,i,-20,-7,
COc1ccc(S(=O)(=O)N2CCCC2CNC(=O)C(=O)Nc2cccc(F)c2)cc1 (stereo unspecified),x,x,14,-4,-3,i,6,-6,
Cc1ccc(NC(=O)NCC2CCN(Cc3cc(C)ccc3Cl)CC2)c(C)c1,-14,25,11,3,1,i,-5,0,
O=C1OC(c2cccc3c(F)cccc23)c2ccccc21 (stereo unspecified),x,x,-11,1,1,x,x,-17,
Nc1nonc1-n1nnc(C(=O)N/N=C/c2c(Cl)cccc2Cl)c1CSC1=NCCS1,0,-1,-5,7,-10,i,x,-8,
Cc1ccnc(NC(=O)Nc2ccc(Br)cc2Cl)c1,4,0,-253,-1,3,x,-9,x,
COc1ccc(N=c2cc(-c3ccc(OC)cc3)oc3ccccc23)cc1,2,10,-27,5,-8,i,-4,x,
O=c1c2ccccc2nc(SCc2ccc([N+](=O)[O-])cc2)n1-c1ccc(Cl)cc1,1,0,-22,2,-2,i,27,x,
Cc1ccc(C)c(NS(=O)(=O)c2ccc(OCC(=O)NCc3ccco3)cc2)c1,12,9,x,-5,-1,i,17,17,
O=C(O)CN1CCN(Cc2ccccc2F)C1=O,-9,-9,0,-1,3,i,-15,-11,
Cc1ccc(C(=O)NCC(=O)NCC(c2cccs2)N(C)C)cc1C (stereo unspecified),x,x,x,1,3,x,-22,-5,
O=C(c1oc(=O)c2ccccc2c1-c1ccccc1)N1CCC(O)CC1,-1,-7,-13,2,8,i,9,-9,
COc1cc(CCC(C)NCc2ccccc2)ccc1O (stereo unspecified),3,-15,15,-3,0,i,8,-9,
COc1ccc(OC)c(Nc2nc(NCCCN(C)C)nc(N)c2[N+](=O)[O-])c1,6,-1,-6,-2,-1,i,3,-3,
COc1ccc(-c2noc(N3CCC(C(=O)Nc4ccc(F)cc4F)CC3)n2)cc1,3,0,-20,x,x,i,0,-19,
O=C(NCCc1ccccc1)c1c(F)c(F)c(F)c(F)c1F,-3,10,8,-1,-1,i,-2,x,
COc1ccc(Cl)cc1NC(=O)N(C)Cc1c(C)nn(C)c1C,-5,-4,-52,5,4,i,-2,19,
COc1ccc(C(=O)/C=C/Nc2ccc(S(=O)(=O)Nc3cccc(C(C)=O)c3)cc2)cc1,-18,9,8,-7,-19,i,11,-15,
Cc1c(C(=O)N2CCCCC2)c(S(=O)(=O)N2CCN(c3ccc(F)cc3)CC2)c(C)n1C,14,-2,0,-1,-2,i,5,-1,
COc1ccc(-c2noc(=O)n2Cc2ccc(C#N)cc2)cc1,-6,23,-12,1,0,i,-10,-24,
Fc1ccc(OCc2nn[nH]n2)c(F)c1,-2,14,-37,1,3,i,-13,5,
CC(=O)c1sc(NC(=O)c2cc3c(C)nn(-c4ccccc4)c3s2)nc1C,7,2,-40,0,-6,i,14,x,
CCN(C[C@H]1N[C@@](Cc2ccccc2)(C(=O)OC)[C@H]2C(=O)N(C)C(=O)[C@@H]12)C(=O)Nc1ccc(C(F)(F)F)cc1,x,x,-14,2,-5,x,-17,-16,
O=C(c1cc2ccccc2cc1O)N1CCCC(C(F)(F)F)C1 (stereo unspecified),-1,5,11,-6,-3,i,2,-18,
O=C(CNCC1CCCO1)Nc1ccc([N+](=O)[O-])cc1C(=O)Nc1ccccc1F (stereo unspecified),6,8,-8,-2,0,i,-3,-4,
Cc1ccc(/C(N)=N/OC(=O)N2CCOCC2)cc1,5,-7,x,-7,-8,i,x,15,
O=C1CC(C(=O)N2CCN(S(=O)(=O)c3cccc(F)c3)CC2)CN1Cc1ccccc1Cl (stereo unspecified),x,x,x,2,4,i,-17,x,
CC(C)=CC(=O)Nc1c(C)cc(C)cc1Cl,-9,-8,21,2,4,x,-13,x,
COc1ccccc1CN1CC(C(=O)NC2CCCCC2)CC1=O (stereo unspecified),-3,-5,x,1,2,i,-5,0,
CN(C)C(=O)c1ccc(-n2nc(C(F)(F)F)c3c2CCCC3)cc1,-7,1,x,-1,2,i,x,3,
CCCCN1C=C(C(=O)OCC)C(=O)CC1,x,x,-10,3,1,x,x,-25,
C[C@H]1CN([C@@H](C)CO)C(=O)c2cccc(NC(=O)C3CC3)c2O[C@H]1CN(C)Cc1ccc(C(F)(F)F)cc1,x,x,-1[16.7 µM],4,1,x,-3,-12&-8,
C=CCOc1nc2c(c(=O)n(C)c(=O)n2C)n1C,9,1,x,5,-4,i,-11,-23,
Cc1nc(Nc2ccc3c(c2)OCCO3)c2c(C)c(C)sc2n1,-19,11,-6,5,-3,i,5,x,
Cc1nn(CC#N)c(=O)n1N(C)c1ncc(C(F)(F)F)cc1Cl,8,11,0,3,0,i,-17,0,
C/C(N)=C(/C#N)C(=O)COC(=O)c1cc(S(=O)(=O)N2CCCCC2)ccc1C,-3,9,-26,-3,-2,i,-8,-6,
COc1ccc(C2=NOC(Cn3nc(-c4ccccc4)cc3C(=O)NCc3ccc(C)cc3)C2)cc1 (stereo unspecified),x,x,1,0,1,x,x,-18,
CCOC(=O)CC(=O)Nc1c(C)cc(C)cc1C,3,6,x,6,2,i,-2,-16,
Cc1cccc2cc(CN(CC3CCCO3)C(=O)NC3CCCCC3)c(=O)[nH]c12 (stereo unspecified),-3,-8,-2,4,-2,i,-11,6,
O=C1NCCCC2c3cc(O)c4ccccc4c3OC12N1CCCCC1 (stereo unspecified),61,42,-64,x,x,x,x,x,eIF4H FP inh retest=22;PABP FP inh retest=36

# 16 compounds already listed, sorted by heavy-atom count, lowest first.
SMILES,eIF4H FP inh,PABP FP inh,Env fusion inh,MT1-MMP act inh,MT1-MMP act inh RFP,Rce1 inhib,CSC inhib,Yeast UUG start,others
Fc1ccc(OCc2nn[nH]n2)c(F)c1,-2,14,-37,1,3,i,-13,5,
Cc1cc(C(=O)NC(C)C2CCCO2)cs1 (stereo unspecified),-8,-4,x,8,2,i,-20,-7,
O=C(O)CN1CCN(Cc2ccccc2F)C1=O,-9,-9,0,-1,3,i,-15,-11,
Cc1ccc(/C(N)=N/OC(=O)N2CCOCC2)cc1,5,-7,x,-7,-8,i,x,15,
O=C1OC(c2cccc3c(F)cccc23)c2ccccc21 (stereo unspecified),x,x,-11,1,1,x,x,-17,
O=C(NCCc1ccccc1)c1c(F)c(F)c(F)c(F)c1F,-3,10,8,-1,-1,i,-2,x,
Cc1nn(CC#N)c(=O)n1N(C)c1ncc(C(F)(F)F)cc1Cl,8,11,0,3,0,i,-17,0,
COc1ccccc1CN1CC(C(=O)NC2CCCCC2)CC1=O (stereo unspecified),-3,-5,x,1,2,i,-5,0,
O=C1NCCCC2c3cc(O)c4ccccc4c3OC12N1CCCCC1 (stereo unspecified),61,42,-64,x,x,x,x,x,eIF4H FP inh retest=22;PABP FP inh retest=36
CC(=O)c1sc(NC(=O)c2cc3c(C)nn(-c4ccccc4)c3s2)nc1C,7,2,-40,0,-6,i,14,x,
C/C(N)=C(/C#N)C(=O)COC(=O)c1cc(S(=O)(=O)N2CCCCC2)ccc1C,-3,9,-26,-3,-2,i,-8,-6,
O=c1c2ccccc2nc(SCc2ccc([N+](=O)[O-])cc2)n1-c1ccc(Cl)cc1,1,0,-22,2,-2,i,27,x,
COc1ccc(-c2noc(N3CCC(C(=O)Nc4ccc(F)cc4F)CC3)n2)cc1,3,0,-20,x,x,i,0,-19,
Nc1nonc1-n1nnc(C(=O)N/N=C/c2c(Cl)cccc2Cl)c1CSC1=NCCS1,0,-1,-5,7,-10,i,x,-8,
O=C1CC(C(=O)N2CCN(S(=O)(=O)c3cccc(F)c3)CC2)CN1Cc1ccccc1Cl (stereo unspecified),x,x,x,2,4,i,-17,x,
COc1ccc(C2=NOC(Cn3nc(-c4ccccc4)cc3C(=O)NCc3ccc(C)cc3)C2)cc1 (stereo unspecified),x,x,1,0,1,x,x,-18,

# The list goes on:
SMILES,eIF4H FP inh,PABP FP inh,Env fusion inh,MT1-MMP act inh,MT1-MMP act inh RFP,Rce1 inhib,CSC inhib,Yeast UUG start,others
Cc1ccc2nc(N3CCCCC3)c(C=O)c(=O)n2c1,-3,2,x,x,x,i,-9,x,
CCC1CC(CSc2ncn[nH]2)OC1=O (stereo unspecified),1,-6,13,-1,-1,i,x,-34,
O=C(Nc1nnc(C2CCCO2)s1)c1cccs1 (stereo unspecified),-7,-6,2,2,3,i,-7,-14,
CCN(CC)c1ccc(C(=O)Nc2ccccc2)cc1[N+](=O)[O-],8,3,-15,5,0,i,14,x,
CC1CCCN(CCCNC(=O)c2ccc(CS(=O)(=O)Cc3cccc(Cl)c3)o2)C1 (stereo unspecified),12,9,1,1,2,i,-1,-13,
Cc1ccc(CSc2nnc(-c3cccc4ccccc34)o2)cc1,x,x,-5,-2,8,x,x,-9,
O=C(Cn1nnc(-c2ccccc2NC(=O)c2ccccc2F)n1)NCc1ccco1,-2,2,-122,-8,-3,i,-11,-14,
COc1ccc(CCN2C(=O)C3C4CCC(C4=C(C)C)C3C2=O)cc1OC (stereo unspecified),-3,-11,33,2,1,i,-3,x,
O=C(CCc1ccccc1)NCC(c1ccco1)N1CCc2ccccc21 (stereo unspecified),x,x,38,-1,-3,i,6,-6,
CCOC(=O)c1ccc2[nH]c3c(c2c1)CCCC3O (stereo unspecified),4,-9,-23,3,-3,i,9,x,
O=C(CCCc1ccccc1)N=C1SC2CS(=O)(=O)CC2N1c1ccccc1F (stereo unspecified),-16,-3,0,1,3,i,-7,-4,
Cc1ccccc1COC(=O)CN1C(=O)NC2(CCCC2)C1=O,x,x,-2,-1,1,i,-15,4,
O=C(COc1cccc2cccnc12)NCC(F)(F)F,31,22,-36,-8,1,i,-7,-23,
CCc1ccc2c(c1)NC(=O)C2(C)Cc1cccc(F)c1 (stereo unspecified),x,x,7,1,-1,x,x,-22,
O=C(Cn1[nH]c(=O)c2ccccc2c1=O)N1CC=C(c2ccccc2)CC1,8,6,u,-5,1,i,-11,12,
Cc1cccc(N(C(=O)CCC(=O)Nc2ccccn2)C(C(=O)NC(C)C)c2ccc(O)cc2)c1 (stereo unspecified),3,5,x,-5,5,i,0,-6,
